D2 potentiator – positive allosteric modulators of human D2 dopamine receptor | P14416 | DiscoveRx D2 beta-arrestin cells, luminescence, 90 min; 100% = 57 uM dopamine signal | potentiation, % (test concentration not listed) | 0.23% of 360,000 active | AID 624464; active = potentiation of 50% or more; inconclusive = 30% to 50%; inactive = 30% or less;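 note: compound concentration not given in the record; tested on top of an EC20 dose of dopamine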
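PathHunter beta-arrestin assay in DiscoveRx D2 cells. Compounds were added with an EC20 of dopamine (50 nM final) for 90 min at 37 deg C. Luminescence was read 1 h after detection reagent, with 57 uM dopamine as the EC100 control.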
Six1-Eya2 blk – inhibitors of human Six1/Eya2 interaction; Q15475+O00167; AlphaScreen GST-Six1/His-Eya2 binding, biochemical; hits give low values; control for the full effect not named in the record; activity change, % (no concentration beside the values); 0.56% of 360,000 active; in the data active = activity change below about -65%; inconclusive = about -30% to -65%; inactive = above about -30%; note: % is set by controls: 0 for no effect and ±100 for the full control effect; compound concentration not given in the record
Target sequence (O00167 whole entry, looked up): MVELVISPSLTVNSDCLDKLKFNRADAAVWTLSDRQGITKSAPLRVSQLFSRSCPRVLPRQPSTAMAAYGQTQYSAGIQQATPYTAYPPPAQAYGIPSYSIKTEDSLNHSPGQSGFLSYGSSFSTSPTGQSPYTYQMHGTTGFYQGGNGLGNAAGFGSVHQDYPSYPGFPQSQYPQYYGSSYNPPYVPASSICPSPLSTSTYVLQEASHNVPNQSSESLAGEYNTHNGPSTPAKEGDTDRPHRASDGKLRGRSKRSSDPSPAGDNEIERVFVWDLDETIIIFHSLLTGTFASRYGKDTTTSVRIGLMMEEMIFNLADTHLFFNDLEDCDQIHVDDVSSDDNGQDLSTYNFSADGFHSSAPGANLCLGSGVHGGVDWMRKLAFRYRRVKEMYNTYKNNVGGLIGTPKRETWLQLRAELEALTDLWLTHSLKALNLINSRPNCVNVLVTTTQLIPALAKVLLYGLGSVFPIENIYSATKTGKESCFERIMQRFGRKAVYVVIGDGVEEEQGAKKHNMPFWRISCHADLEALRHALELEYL
Target sequence (Q15475 whole entry, looked up): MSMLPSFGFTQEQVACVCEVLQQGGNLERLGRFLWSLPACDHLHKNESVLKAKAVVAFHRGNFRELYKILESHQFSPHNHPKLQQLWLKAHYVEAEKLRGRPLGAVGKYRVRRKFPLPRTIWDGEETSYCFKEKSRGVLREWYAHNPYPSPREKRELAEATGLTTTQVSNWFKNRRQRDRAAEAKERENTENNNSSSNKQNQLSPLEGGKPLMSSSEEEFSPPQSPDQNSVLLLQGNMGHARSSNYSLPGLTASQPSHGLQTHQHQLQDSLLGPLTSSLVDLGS
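Six1/Eya2 binding was read as AlphaScreen signal after compounds were pinned into GST-Six1 plus His-tagged Eya2 (5X stock 250/500 nM) in pH 8.0 Tris/NaCl/TCEP buffer, beads added, then incubated 1 h, 37 C, dark.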
D2 agonist – agonists of human D2 dopamine receptor (beta-arrestin) | P14416 | DiscoveRx PathHunter D2 beta-arrestin, luminescence, 90 min; 100% = 57 uM dopamine signal | activation, % (test concentration not listed) | 0.084% of 360,000 active | AID 624465; in the data active = activation above about 40%; inconclusive = about 15% to 40%; inactive = below about 15%; note: compound concentration not given in the record; the text of the record calls up to 30% inactive
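Agonist mode: compounds alone added to overnight-plated D2 PathHunter cells for 90 min at 37 C, with 57 uM final dopamine (EC100) defining full response. Beta-arrestin recruitment detected by chemiluminescent reagent, read after 1 h at ambient temperature.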
PINK1 expr mod – changes PINK1 expression; AID 624263; PINK1 immunofluorescence, high-content cytometry, 24 h; Potency, µM (titrated, usually from 76.6 µM), for inactives: at the highest dose activation (PINK1 increase), hits mostly activators; 0.2% of 410,000 active; active = well fitted activation curve with a large enough effect; inconclusive = small, poorly fitted or top-dose-only effect; inactive = flat fitted curve, though single readings scatter; cell line not stated here;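 note: potency is the fitted concentration of half-maximal effect; % of control where 0% means no effect; nearly all actives have a fitted effect of over 65% in size; a mitochondrial uncoupler was the plate control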
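Stable cell line, 250 cells/well, 12 h attachment; compounds pinned at 5 concentrations, 24 h; CCCP control. Fixed with nuclear dye, primary antibodies 12 h at 10 degrees C, secondary plus cell stain; laser-scanning cytometer read.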
TRPML1 agonist – human mucolipin-1 channel agonism; activation, % (concentration not given with the values); Q9GZU1; AID 624414; TRPML1-expressing cells, Ca2+ dye fluorescence, FDSS; host cell line not named in the record; reference of the full effect not given here; 0.12% of 410,000 active; in the data active = activation above about 50%; inconclusive = about 30% to 50%; inactive = below about 30%; note: 0% is about no effect; the text of the record puts the active cut at 80%
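Kinetic FDSS Ca2+ read in Tet-induced TRPML1-DL cells (ABD Ca8 dye plus quencher, 45-90 min RT loading): baseline, then compound, then 110 s agonist window; EC80 agonist 54-4 at 4uM final added afterwards for a 110 s antagonist window.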
TRPML1 blocker – blocks the human TRPML1 channel; TRPML1-inducible cells, Ca2+ dye fluorescence, FDSS; hits give low values; inhibition of EC80 agonist-evoked calcium signal; Q9GZU1; 0.02% of 390,000 active; activity change, negative = inhibition, % (concentration not given with the values); in the data active means activity change below about -50%; inconclusive means about -30% to -50%; inactive means above about -30%;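 note: stimulus is agonist 54-4 at its EC80 concentration; % is set by controls: 0 for no effect and ±100 for the full control effect; compound concentration not given in the record; the text of the record puts the active cut at -80%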
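Tet-induced TRPML1-DL cells loaded with Ca8 no-wash calcium dye were read kinetically on FDSS. Compound addition was followed by EC80 agonist 54-4 (4 uM final); inhibition was read over 110 s.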
Active calls of the source: *; ? = inconclusive; . = not tested or not shown; [ ] = remark or other dose.

SMILES	D2 potentiator	Six1-Eya2 blk	D2 agonist	PINK1 expr mod	TRPML1 agonist	TRPML1 blocker
CN1CCN(CC/C=C2/c3ccccc3Sc3ccc(S(=O)(=O)N(C)C)cc32)CC1	-35.1	-17.4	-3.3	0.9%	2.5	22.3
COc1ccccc1N1CCN(/N=C/c2cccc(Cl)c2)CC1	-0.7	?	2.8	1.5%	2.2	18.4
Cc1ccc(C(=O)Nc2nnc(S(=O)(=O)N(C)Cc3ccc(Cl)cc3)s2)cc1	.	.	.	-0.9%	1.2	-22.5
CCCc1cc(=O)oc2c3c(cc(OCC(=O)NCCCn4ccnc4)c12)OC(C)(C)CC3	-19.1	-9.7	-4.3	0.7%	.	.
CCOc1ccc(NC(c2ccc(Cl)cc2)c2nnc(-c3cccc(F)c3)o2)cc1 (stereo unspecified)	.	.	.	-0.3%	0.2	-2.3
CCn1c(CNc2ccc(C)cc2C)nnc1SCC(=O)N1CCCc2ccccc21	-6.9	-14.6	-3.2	-3.3%	0.1	-0.7
COc1ccc(CC2(CO)CCN(Cc3cnn(C)c3C)CC2)cc1	-9.4	-16.7	-1.2	0.1%	-0.1	-4.4
CCN(CC)Cc1nc2sc(C)c(C)c2c(=O)[nH]1	-11.8	-3.0	-1.0	1.8%	3.2	7.2
O=C(O)CC1(CC(=O)O)Nc2ccccc2SC1=O	-2.3	4.7	1.6	-0.1%	-0.1	10.8
CC(C)c1ccc(NC(=O)NCc2cccnc2)cc1	-11.3	10.1	-4.9	0.4%	-0.1	7.6
FC(F)(F)c1ccnc(NCc2ccco2)n1	-6.0	-0.3	-4.3	1.8%	1.9	29.4
COCCOC(=O)C1=C(C)NC(=O)CC1c1cc2c(cc1Br)OCO2 (stereo unspecified)	-10.6	-2.7	-1.9	0.6%[38.3 µM]	0.1	-2.6
COc1ccc(C(=O)CSc2ccc(-c3ccc(C)cc3)nn2)cc1	-14.7	-4.0	4.5	2.6%	2.1	-9.2
CCCc1nnc(NC(=O)c2cc3ccccc3o2)s1	-4.4	2.9	-1.7	1.2%	-0.4	-2.7
COc1cc(C(=O)Nc2ccccc2-c2nnn(CC(N)=O)n2)cc(OC)c1OC	20.4	-1.1	-0.8	2.8%	-1.0	1.9
Cc1ccc(Nc2nnc(-c3ccc(C)c(S(=O)(=O)N4CCN(C)CC4)c3)c3ccccc23)c(C)c1	.	.	.	1.2%	-0.9	-18.6
C=CCNC(=O)C1CC(=O)N(c2ccc(OCC(=O)Nc3ccc(Cl)c(C(F)(F)F)c3)cc2)C1 (stereo unspecified)	-1.5	3.3	0.1	9.7%	0.0	6.8
Cn1c(NCc2ccc3occc3c2)nc2cc(-c3ccc(F)cc3)sc2c1=O	-1.7	-1.5	-1.6	1.3%	-0.5	.
C#CCOCCOCCOCCNc1nc(N2CCN(C(=O)C([C@@H](C)CC)n3cc(C(N)COC(=O)C(F)(F)F)nn3)CC2)nc(N2CCN(C(=O)[C@H](Cc3cc4ccccc4[nH]3)n3cc(C(N)CO)nn3)CC2)n1 (stereo partly specified)	-2.1	?	-1.9	1.6%	-0.7	-4.9
CCN(CC(=O)NCc1ccc(F)cc1)C(=O)c1oc2ccccc2c1C	0.7	-3.2	1.7	11.9%	2.2	?
O=C(NC(=S)Nc1ccccc1OC(F)F)c1ccc2c(c1)OCO2	-2.9	-6.2	1.4	10.5%	0.6	-13.1
CCOC(=O)N1CCN(C(=O)c2ccc3c(=O)n(-c4ccc(OC)cc4OC)c(=S)[nH]c3c2)CC1	-10.0	2.4	-2.0	-1.2%	2.9	-5.3
Cc1ccc(OCC(=O)Nc2cccc(-c3nnc(-c4ccccc4)o3)c2)c(C)c1	-5.3	1.5	1.0	18.1%[38.3 µM]	-0.1	-2.8
CCOC(=O)c1c(NC(=O)CSc2nnc(-c3cccnc3)o2)sc(C(C)=O)c1C	25.8	-8.8	2.4	-1.7%	1.7	-18.3
Cc1nc(NC(=O)COC(=O)CCc2ccccc2)c(Cl)cc1Cl	-9.0	5.0	5.5	6.4%	0.5	12.0
C[C@H](NC(=O)c1nc[nH]c1C(=O)N1CCc2ccccc2C1)c1ccccc1	-7.3	-2.5	-1.2	2.5%	-0.4	6.0
FC(F)(F)c1cccc(Nc2c3c(nc4ccc(Cl)cc24)CCC3)c1	.	.	.	?	0.2	4.5
COc1cccc(CC(=O)Nc2ccc(-c3nc4ccccc4s3)cc2)c1	.	.	.	?	3.0	-14.6
O=C(C1CC=CCC1)N1CCC(CO)(Cc2ccc(Cl)cc2)CC1 (stereo unspecified)	-17.5	-0.6	-1.6	-0.4%	0.0	25.6
COc1ccc(CNc2nc(NCc3ccc(OC)cc3)n(C(=O)c3ccccc3[N+](=O)[O-])n2)cc1	-0.8	-26.1	-3.3	6.9%[38.3 µM]	1.6	-1.0
CCCn1c(SCC(=O)NCCc2ccccc2)nnc1-c1ccccn1	-6.8	-1.8	-5.6	-2.3%	-1.2	10.4
N#CC1=C(N)Oc2n[nH]c(-c3ccccc3)c2C1c1ccsc1 (stereo unspecified)	8.8	-5.4	0.5	-0.2%	1.7	24.8
COc1ccc(C2=NOC(C(=O)NCc3ccccn3)C2)cc1OC (stereo unspecified)	5.2	3.4	1.4	0.4%	0.2	26.8
CCC(NC(=O)NCc1cccnc1)(C(F)(F)F)C(F)(F)F	-27.1	-5.5	-0.6	1.4%	-0.5	0.6
Cc1cc(C)cc(Nc2cc(C)nc3nncn23)c1	.	.	.	1.7%	-0.8	-10.2
Cc1ccc(CNC(=O)C2CC(=O)N(CCC(C)C)C2)cc1 (stereo unspecified)	-12.4	5.1	-2.1	0.7%	-0.4	-14.0

Compound profiles, from the list above.
Cc1ccc(CNC(=O)C2CC(=O)N(CCC(C)C)C2)cc1 (stereo unspecified) reads D2 potentiator: -12.4; Six1-Eya2 blk: 5.1; D2 agonist: -2.1; PINK1 expr mod: 0.7%; TRPML1 agonist: -0.4; TRPML1 blocker: -14.0
O=C(C1CC=CCC1)N1CCC(CO)(Cc2ccc(Cl)cc2)CC1 (stereo unspecified) reads D2 potentiator: -17.5; Six1-Eya2 blk: -0.6; D2 agonist: -1.6; PINK1 expr mod: -0.4%; TRPML1 agonist: 0.0; TRPML1 blocker: 25.6

Next results
SMILES	D2 potentiator	Six1-Eya2 blk	D2 agonist	PINK1 expr mod	TRPML1 agonist	TRPML1 blocker
CN1C(=O)/C(=C\c2cc(N=Nc3ccccc3)ccc2O)SC1=S	-29.5	-18.7	1.3	39.8µM*	-0.3	-8.3
C=CCc1ccc(OCC(O)CN2CCc3ccccc3C2)c(OC)c1 (stereo unspecified)	-27.7	-7.1	-2.8	5.4%	0.3	4.3
O=C1OC(CC(=O)N(Cc2nnc(-c3ccc(Cl)cc3)o2)C2CC2)c2ccccc21 (stereo unspecified)	-0.7	1.7	0.7	0.0%	-0.4	-4.3
Cc1ccc(NC(=O)c2cc(C)nc3ccccc23)c(C)c1	5.0	-2.6	1.9	1.5%	.	.
CCOC(=O)c1sc(NC(=O)c2nc3nc(C)cc(C(F)F)n3n2)c(C(=O)OC)c1C	.	.	.	6.6%	-0.6	6.8
CCOc1ccc(C(=O)OCc2cc(=O)n3nc(C4CC4)sc3n2)cc1	.	.	.	0.0%	0.0	-6.1
CCCNc1nc2c(c(=O)[nH]c(=O)n2C)n1Cc1ccc(F)cc1	-3.8	-0.1	-1.9	1.8%	-1.2	-1.7
CCOC(=O)c1ccc2nc(C)c(C)nc2c1	-3.5	8.9	-1.4	0.8%	0.7	-12.0
N#CCCn1cc(C(=O)Nc2ccc(C(=O)O)cc2)c(-c2cc3ccccc3o2)n1	-3.9	-5.0	0.5	4.0%	0.0	-5.7
CC(C)c1ccccc1NC(=O)Nc1nc(C(N)Cc2ccc(C(F)(F)F)cc2)cs1 (stereo unspecified)	10.3	-3.6	11.6	-1.0%	0.9	.
Cc1cccc(NC(=S)NCc2cccs2)c1	-2.0	-3.9	-4.1	0.1%	-0.2	-6.7
C[C@H](CO)N1C[C@H](C)[C@H](CN(C)Cc2cncnc2)Oc2ncc(C#CC3(O)CCCC3)cc2C1=O	.	2.2	-4.0	-0.8%	.	.
COc1ccc(N2C(=O)C3CCCN3C2c2cccc(F)c2)cc1Cl (stereo unspecified)	-8.3	0.6	-2.9	-0.2%	1.0	-12.2
OC[C@H]1O[C@H](c2nc(-c3nc(-c4cccc(-n5cccc5)c4)no3)cs2)C[C@@H]1O	-10.9	-15.4	-1.9	1.6%	2.7	-2.7
CCCOC(=O)Nc1c(C)cccc1C(C)C	-5.3	8.0	-3.7	4.2%	-0.1	-6.9
COc1cccc(OCc2cc(C(=O)N3CCN(C(C)=O)CC3)no2)c1	-6.3	6.6	-1.5	0.7%	-0.1	4.5
CCOC(=O)N1CCC(N(CCOC)C(=O)Nc2ccc(CC)cc2)CC1	-15.4	0.0	1.4	.	0.4	-0.2
CCCC(c1nnnn1CS(=O)(=O)c1ccc(C)cc1)N1CCN(CC)CC1 (stereo unspecified)	-10.7	1.8	-3.3	-1.5%	-0.2	-1.6
COc1ccc(NC(=O)CSc2ccccc2)cn1	-0.5	7.9	0.2	3.8%	-0.1	-15.5
CCN(CC)S(=O)(=O)c1ccc(N2CCOCC2)c(NC(=O)c2cc3ccccc3o2)c1	-11.0	5.3	-5.0	-0.9%	0.9	5.8
Cc1ccc(-n2c(C)nnc2SCC(=O)N2CCc3ccccc3C2)cc1C	-2.0	3.4	-0.2	-2.2%	0.2	-5.6
COc1ccc(NC(=O)CSc2nc3[nH]ncc3c(=O)n2-c2ccccc2C)cc1OC	-12.9	-3.5	-1.3	0.4%	0.5	12.2
COc1ccc(NC(=O)CS(=O)(=O)c2ccccc2Cl)cc1	-3.0	3.9	2.1	-0.5%	1.9	-4.7
COc1ccc(CCNC(=O)COC(=O)c2cnc(C)cn2)cc1OC	-3.3	-0.3	-2.4	-1.4%[38.3 µM]	0.3	-1.0
CC1=C(C(=O)N2CCOCC2)C(c2ccc(C)cc2)NC(=S)N1 (stereo unspecified)	-3.4	4.7	-2.3	-1.2%	0.4	2.9
CCN1CCN(c2nc3c(c(=O)[nH]c(=O)n3C)n2Cc2cccc(C)c2)CC1	-28.2	-14.0	-0.5	0.6%	-0.8	-0.3
CC(C)COC(=O)c1cc(-c2ccc(/C=N/n3cnnc3)o2)ccc1Cl	3.3	4.2	-0.3	1.5%	-1.1	26.3
Cc1csc(=O)n1CC(=O)Nc1ccc(S(C)(=O)=O)cc1	1.2	7.5	1.2	-1.0%	-0.4	-5.0
N#Cc1c(SCc2ccccc2)nc(N2CCOCC2)c2c1CCCC2	1.6	-0.2	3.3	0.8%	1.0	26.2
CCN(CC(=O)NCCc1ccc(S(N)(=O)=O)cc1)Cc1nc2ccccc2c(=O)[nH]1	-9.9	-1.1	-2.7	0.0%	0.0	-4.3
CC(=O)n1cc(C2CC(=O)OC3=C2CC(=O)C(C)(C)C3)c2ccccc21 (stereo unspecified)	-6.8	-7.3	-5.2	-0.1%	-0.8	2.0

Assay outcomes: PubChem BioAssay, National Center for Advancing Translational Sciences (NCATS)
